# Source: PubChem
# AID504770: growth inhibitors of E. coli YBA685 in a screen for V. cholerae RctB (chromosome II replication) inhibitors; 0.27% of 130,000 active; E. coli YBA685 rctB-dependent plasmid, OD600 growth, 3 h; stronger effect = lower value; z-score (no concentration beside the values); AID 504770;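 active = z-score under -2 on both plates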;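 note: wells of about 30 µL received 100 nL stock; score is relative to mean and SD of the test wells; the first replicate is given; strong numbers were not always called active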
# Ba CapD inh: CapD enzyme inhibition | purified CapD enzyme, fluorescence intensity read-out; stronger effect = lower value; some hits fall short of the stated cut | AID 492967 | z-score (concentration not given with the values) | 0.23% of 140,000 active;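 active = z-score under -4 in either of two replicates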;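 note: stock transfer was 100 nL into about 40 µL; score is relative to mean and spread of the plate; one replicate is shown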
# Numbers without * were called inactive; i = inactive; · = no result given. These rows are one share of the data; count on the stated rates, not on these rows.
SMILES,AID504770,Ba CapD inh
COc1cccc(OC)c1CNC(=O)CNC(=O)OC(C)(C)C,·,-0.1
C=CCOc1ccc(/C=C(\C#N)C(=O)Nc2ncc(Cc3ccc(C)cc3)s2)cc1,·,-1.4
O=S(=O)(NCc1ccc(F)cc1F)c1cccc(C(F)(F)F)c1,·,-0.35
COc1ccc(NS(=O)(=O)c2ccccc2)cn1,-0.15,0.42
CC(C)CCNC(N)=O,1.1,·
O=C(NC1CC1)c1cc2cc(Cl)ccc2oc1=O,-0.95,1.7
COC(=O)C1C(=O)N(C)C2(C)CC1c1ccccc1O2 (centres undefined),·,-0.58
O=C(OCC1COc2ccccc2O1)N1CCC(C(O)(c2ccccc2)c2ccccc2)CC1 (centres undefined),·,0.04
Cc1noc(C)c1COC(=O)CCc1ccc(S(=O)(=O)N2CCCCC2)cc1,-0.15,·
N#CCCCN1C(=O)C(=C(C#N)C#N)c2ccccc21,-0.6,·
COC(=O)C1=C(N)OC2=C(C(=O)CCC2)C1c1ccc(Br)cc1 (centres undefined),·,-0.095
CC1C2(C)OC(=N)C(C#N)(C(c3ccncc3)O2)C1(C#N)C#N (centres undefined),-1.2,43
Cc1cc(=O)[nH]c(NN=C(CC(C)C)CC(C)C)n1,0,·
COC(=O)N(C)c1ccccc1C(=O)N1CCOCC1,-0.65,0.92
CCOC(=O)C1=C(N)Oc2ccc3ccccc3c2C1c1cccc(Cl)c1 (centres undefined),·,-0.28
O=C(Nc1ccc(Oc2ccccc2)cc1)c1n[nH]c(=O)c2ccccc12,0.25,-0.33
Cc1ccccc1NC(=O)Cc1nc(COC(=O)/C=C/c2ccco2)cs1,-0.65,·
NC(=O)CCCc1c[nH]c2ccccc12,0,-0.25
CSC1=C(C#N)C(=O)NC(c2ccc([N+](=O)[O-])cc2)S1 (centres undefined),·,0.21
CC(C)c1cc(=O)[nH]c(SCc2nc3ccccc3[nH]2)n1,-0.35,·
CC(Cn1nnc2ccccc21)C(=O)O (centres undefined),-0.9,-1.3
Nc1nnc(SCc2cc(=O)n3ccsc3n2)s1,-0.9,-0.035
O=C1S/C(=C/c2ccccc2F)C(=O)N1CNc1ccc(Br)cc1,·,0.26
O=C(CSc1nc(-c2ccco2)cc(C(F)(F)F)n1)Nc1ccccc1,-0.8,·
CN(C)c1cc(-c2nnc(SCc3ccccn3)n2C)nc(N(C)C)n1,·,12

# Some of these compounds in order of molar mass, low to high.
SMILES,AID504770,Ba CapD inh
O=S(=O)(NCc1ccc(F)cc1F)c1cccc(C(F)(F)F)c1,·,-0.35
O=C(CSc1nc(-c2ccco2)cc(C(F)(F)F)n1)Nc1ccccc1,-0.8,·
Cc1noc(C)c1COC(=O)CCc1ccc(S(=O)(=O)N2CCCCC2)cc1,-0.15,·
O=C(OCC1COc2ccccc2O1)N1CCC(C(O)(c2ccccc2)c2ccccc2)CC1 (centres undefined),·,0.04

# (more compounds)
SMILES,AID504770,Ba CapD inh
Cc1cccc(/C=N/n2c(C)nnc2C)c1,0.4,0.09
COc1cc(C(=O)Nc2ccc(N3CCCCC3C)cc2)cc(OC)c1OC (centres undefined),-0.85,·
CCNc1nc(N2CCOCC2)c2ccccc2n1,-1.2,·
Cc1cccc(N=c2oc3cc(O)ccc3cc2C(N)=O)c1,-0.15,6.5
CCc1ccc(N2COc3ccc4c(CC)cc(=O)oc4c3C2)cc1,0.95,12
Cc1cc(NC(=O)C(C)(C)C)n(C)n1,·,0.38
CCC(C)NC(C)C(=O)Nc1ccc(Cl)cc1Cl (centres undefined),-1,·
CCCc1nnc(SCc2ccccc2C#N)o1,0.25,0.18
CC(Sc1ccc2c(c1)OCCO2)C(=O)Nc1ccc2c(c1)OCCO2 (centres undefined),-0.4,·
CCCN(CCC)C(=O)C1C2C=CC(C2)C1C(=O)O (centres undefined),0.3,0.47
N#CC1=C(c2ccc(Cl)cc2)Sc2ccccc2NC1=O,0.8,i
CC(C)(C)c1ccc(C(=O)Nc2ccccc2C(=O)N2CCC(c3c[nH]c4ccccc34)CC2)cc1,·,-0.23
NC(=O)C1CCN(Cc2nc3ccccc3c(=O)[nH]2)CC1,0,·
CC(C)(C)C(=O)C1=C(O)C(=O)N(c2ccccc2)C1c1ccccc1 (centres undefined),-2.6,·
CC(CC(=O)O)CC(=O)N1CC=C(c2ccccc2)CC1 (centres undefined),·,1.1
O=C(O)c1cccn1-c1ncc(C(F)(F)F)cc1Cl,1.1,0.35
O=C(CN1C(=O)CCSc2ccccc21)N1CCc2ccccc21,-0.7,-0.67
CC(C#N)(NC(=O)CN1CCN(S(=O)(=O)c2ccccc2Cl)CC1)C1CC1 (centres undefined),-0.1,·
CC1(C)CN(C(=S)Nc2ccc(F)cc2F)C1=O,0.55,0.45
CCOc1ccccc1N(CC(=O)NC)S(C)(=O)=O,-0.85,0.025
Cc1nc(C(=O)Nc2ccc(F)cc2F)nn1-c1cccc(C(F)(F)F)c1,·,-0.18
N#Cc1c2c(c(N3CCCCCC3)n3c1nc1ccccc13)CCC2,·,-0.09
O=C(c1cccc2c1OCCCO2)N(Cc1ccccn1)Cc1ccccn1,-0.8,-0.3
COc1ccc(C2=CC(c3sccc3C)n3nnnc3N2)cc1 (centres undefined),0.7,4.2
COc1cccc2c(C)nc(Nc3nc4ccccc4c(=O)[nH]3)nc12,·,-0.21

# Some of the entries above, reformatted.
Structure	AID504770	Ba CapD inh
Cc1cc(NC(=O)C(C)(C)C)n(C)n1	·	0.38
CCNc1nc(N2CCOCC2)c2ccccc2n1	-1.2	·
O=C(c1cccc2c1OCCCO2)N(Cc1ccccn1)Cc1ccccn1	-0.8	-0.3

# (next part)
SMILES,AID504770,Ba CapD inh
Cc1ccccc1OC1OCCOC1Oc1ccccc1C (centres undefined),0.6,1
Cc1cc2c(ncn2C(C)C)c(NS(=O)(=O)c2ccccc2Cl)c1C,·,-0.2
CCOc1ccc(OCCCl)cc1,1.5,-0.28
Cc1csc(NC(=O)C(NC(=O)c2ccccc2)C(C)C)n1 (centres undefined),-0.4,-0.26
CCOc1ccc(-n2cc(-c3ccccc3)c3c(NCCCN4CCCC4=O)ncnc32)cc1,·,0.48
O=C(O)CCC(=O)NC1CCCCC1,1.6,0.49
O=C1COc2ccccc2N1CC(=O)N(CC1CCCO1)C1CCS(=O)(=O)C1 (centres undefined),2.2,·
Cc1nc(N)nc2c1CCCC2,-0.7,·
CCCCOc1ccc(C(=O)NC2CCN(C)CC2)cc1,0.7,0.67
O=C(CSc1nccn1Cc1ccccc1)N1CCN(C(=O)c2cccs2)CC1,0,·
O=C(c1c(F)cccc1F)N1CCN(C/C=C/c2ccccc2)CC1,-0.15,0.27
CC1CCCCN1C(=O)c1cccc(C#N)c1 (centres undefined),0,·
CCC(=O)N1CCN(c2nc(C(C)C)nc3sc4c(c23)CCCC4)CC1,0.05,·
Cc1cccc(N2CCN(c3cccc(C)c3)C2c2cccnc2)c1,0.25,·
Cc1ccc(C(=O)OCC(=O)NC2CCCCC2)s1,-0.4,-0.49
COc1ccc(NC(=O)C(c2ccccc2)N(C)C(=O)Cc2cccs2)cc1 (centres undefined),1.6,-0.81
O=C(CSc1nc2ccc(Nc3nc(N4CCOCC4)nc(N4CCOCC4)n3)cc2s1)NCc1ccco1,·,0.65
CC(C)(CC(=O)O)CC(=O)Nc1ccccc1Oc1ccccc1,1.6,0.66
COc1cc(CO)c(CC(=O)NN)cc1OC,-0.15,0.12
N#Cc1cccc(C(=O)NCCc2ccc3c(c2)OCCO3)c1,1.3,·
Cc1cccc(C(=O)OCCN2CCOCC2)c1,1,0.38
Cc1[nH]c2ccccc2c1Cc1n[nH]c(=S)o1,-0.7,-0.76
COc1ccc(-n2nc(C(=O)N(C)Cc3ccccc3)c3c4ccccc4n(C)c3c2=O)cc1,-0.35,0.72
Cc1nn(-c2cccc([N+](=O)[O-])c2)c(N)c1-c1cccc(C(F)(F)F)c1,·,0.39
COc1ccc(S(=O)(=O)NCc2ccc(C(=O)N(C)Cc3ccco3)cc2)cc1,2.5,2.1

# Compound profiles, as listed above. Order of screens: AID504770	Ba CapD inh
# Listed for Cc1ccccc1OC1OCCOC1Oc1ccccc1C (centres undefined) → 0.6	1
# Listed for Cc1nc(N)nc2c1CCCC2 → -0.7	·
# Listed for N#Cc1cccc(C(=O)NCCc2ccc3c(c2)OCCO3)c1 → 1.3	·
# Listed for Cc1nn(-c2cccc([N+](=O)[O-])c2)c(N)c1-c1cccc(C(F)(F)F)c1 → ·	0.39
# Listed for Cc1ccc(C(=O)OCC(=O)NC2CCCCC2)s1 → -0.4	-0.49

# Further results:
SMILES,AID504770,Ba CapD inh
O=C(O)c1cccnc1SC1CC(=O)N(c2ccc([N+](=O)[O-])cc2)C1=O (centres undefined),·,-1.5
Clc1cccc2c(NCCCN3CCOCC3)cnnc12,-0.75,-3.6
O=C1OC(c2ccccc2)=N/C1=C/c1ccco1,-0.35,-0.53
CCSC1=NN2CCS(=O)(=O)N=C2S1,-0.6,·
O=C(O)c1ccccc1N=Cc1c(O)[nH]c2ccccc12,1.9,-0.04
C=CCOC(=O)C1=C(C)NC(=O)NC1c1cn(-c2ccccc2)nc1-c1ccc(F)cc1 (centres undefined),·,-0.23
CCN1C(=O)c2ccccc2Sc2ccc(C(=O)NCc3ccccc3)cc21,0.75,-0.53
N=c1n(CC(N)=O)c2ccccc2n1Cc1ccccc1Cl,0.75,·
COc1ccc(OCCSc2nc3ccc(Br)cc3[nH]2)cc1,·,-0.23
Cc1ccc(S(=O)(=O)c2cnc(-c3cccnc3)nc2-c2ccccn2)cc1,·,-0.23
C=CCNC(=S)NNC(=O)c1ccc(OCc2ccccc2)cc1Cl,·,-0.34
Cc1ccc(N2C(=O)C(N3C(=O)c4ccccc4C3=O)C2c2ccc(OC(F)F)cc2)cc1 (centres undefined),·,-0.57
O=C(Nc1ccc(SCc2nc(OCC(F)(F)F)cc(OCC(F)(F)F)n2)cc1)c1ccc(-c2ccccc2)cc1,·,-0.41
O=C(c1ccc(NS(=O)(=O)c2ccc3[nH]c(=O)[nH]c3c2)cc1)N1CCN(c2ccc(F)cc2)CC1,1.5,·
Clc1ccc(-c2cn3ccsc3n2)cc1,-0.4,0.61
O=C(Cn1c(=O)cnc2ccccc21)NCCc1ccccc1,1.3,·
CS(=O)(=O)c1ccc(F)c(NC(=O)c2cccc(C(F)(F)F)c2)c1,·,-0.26
Cc1c(-c2ccc(Cl)cc2)nc(N)c(C#N)c1-c1ccco1,0.9,-0.86
Cc1ccccc1-c1n[nH]n2c1nc(=O)c1cc(Cl)ccc12,1.8,0.8
CCn1c(CN2CCCCC2)nc2cc(S(=O)(=O)N3CCCCC3)ccc21,1.4,·
COc1ccc2c(c1)c(C(=O)CSc1ccccc1)c(C)n2C,0.4,-0.1
COc1ccc(NC(=O)/C=C/c2ccc(OCc3ccccc3)cc2)cc1,·,-0.83
Cc1ccc(CSc2nnc(-n3c(=O)c(C#N)cc4c(=O)n5ccccc5nc43)s2)cc1,0.1,0.65
c1ccc(Cn2c(Nc3ccccc3)nc3ccccc32)cc1,-0.15,0.15
CC1CCCC(C)N1C(=O)COC(=O)c1ccc2c(c1)OCO2 (centres undefined),-0.4,·
# (continued)
SMILES,AID504770,Ba CapD inh
Cc1ccc(OC(=O)c2c(-c3ccccc3)nnc3ccccc23)cc1,-1.1,-0.4
COc1ccc(CCN2C(=O)CNC2=S)cc1,-0.55,·
Cc1ccc(S(=O)(=O)Nc2cncc(C(=O)NC3CCCC3)c2)cc1,0.35,21
CCc1cc2c(=O)c(-c3cscn3)coc2cc1O,-0.55,0.29
COC(=O)c1ccccc1N1C(=O)C2C3C=CC(C(OC(C)=O)OC(C)=O)(O3)C2C1=O (centres undefined),·,0.01
NS(=O)(=O)c1ccc(N2N=C(C(F)(F)F)/C(=C/c3ccc(-c4ccc5c(c4)C(=O)NC5=O)o3)C2=O)cc1,·,0.05
CC(=O)c1ccc(N2C(=O)c3ccccc3C2=O)cc1,·,-0.4
Cc1cccc(OCc2nnc(SCn3nnc4ccccc4c3=O)o2)c1,0.7,·
Cc1ccc(Cn2c(C3CC(=O)N(c4ccccc4)C3)nc3ccccc32)cc1 (centres undefined),-0.75,-0.66
CCOc1ccc2c(c1)-c1c(ssc1=S)C(C)(C)N2C(=O)c1ccccc1Cl,·,-1.3
N/C(=N/OC(=O)Nc1ccccc1)c1ncc(C(F)(F)F)cc1Cl,·,-0.41
CCSC1=N/C(=C\c2ccc(N(C)C)cc2)C(=O)S1,0.7,0.64
O=C(CCCn1c(SCc2ccccc2F)nc2ccccc2c1=O)NCC1CCCO1 (centres undefined),-0.3,-0.53
CC[C@]12C=CCN3CCC4(c5ccc(OC)cc5N(C)[C@H]4C(O)(C(=O)OC)[C@@H]1OC(C)=O)C32 (some centres undefined),-0.8,0.21
CCOC(=O)C1C(C)=NC(=O)NC1C (centres undefined),-0.25,0.14
NC(=O)C1(Nc2ccccc2)CCCCC1,-0.95,-0.18
COC(=O)c1cc2c(ccn2C)n1CC(=O)N(C1CCCCC1)C1CCCCC1,0.4,·
CC(C)C(=O)Nc1ccc(-c2csc(N)n2)cc1,0.5,·
COc1ccc(-c2cs/c(=N\c3ccccn3)n2-c2ccccc2)cc1,·,-0.28
CCN1CCN(CCNC(=O)c2ccc3c(=O)n(Cc4ccc(Cl)cc4)c(=S)[nH]c3c2)CC1,·,-1.7
O=C(NCCCN1CCN(c2ccc(F)cc2)CC1)c1ccc2nc3ccccc3c(=O)n2c1,-0.55,5.5
CCOC(=O)c1nn(-c2ccc(OC)cc2)c(C(=O)OCC)c1NC(=O)C1CCCCC1,-0.65,-0.46
C#Cc1ccc(NC(=O)CCc2cc(OC)no2)cc1,-0.35,0.18
NNc1nc(Nc2cccc(Br)c2)nc(N2CCOCC2)n1,·,0.14
CC(O)c1nc2ccccc2n1CC(=O)C(C)(C)C (centres undefined),0.35,0.58
